Bioassay records: PubChem BioAssay, National Center for Advancing Translational Sciences (NCATS)
Rango complex inh – Rango-importin beta binding inhibition. Rango CFP/YFP FRET sensor + importin beta, 45 min. Q14974. AID 540263. 340,000 tested, 0.031% active. Potency, µM (series often up to 92.2 µM), inactives show at the highest dose inhibition of complex formation; active = rising FRET ratio curve, often small or poorly fitted; inconclusive = mostly compound fluorescence or quenching in the first reads; inactive = flat curves in all reads;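 note: potency is the fitted concentration of half-maximal effect; 0% = DMSO wells and 100% = buffer wells lacking importin beta; nearly all actives have a fitted effect of over 15% in size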
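FRET biosensor Rango (snurportin 1 IBB between N-terminal EYFP and C-terminal Cerulean), 50 nM in PBS/1 mM DTT/0.02% Tween-20/0.1% BSA, preincubated 5 min RT with compound; 0.125 microM importin beta added, 45 min RT, CFP/YFP FRET ratio read.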
GLA inh pH 4.5 – inhibitors of human alpha-galactosidase A at pH 4.5; P06280; purified enzyme, 4-MU-alpha-Gal fluorescence, pH 4.5; activity change, negative = inhibition, % at 105 µM; 230,000 tested, under 10 active; inconclusive = small, poorly fitted or top-dose-only inhibition, or a rising curve; inactive = flat fitted curve, though single readings scatter; no compound was filed as active;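 note: 0% = full activity with enzyme and -100% = basal without enzyme; dose as in the result columns while the protocol names 77 µM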
Target sequence (P06280 whole entry, looked up): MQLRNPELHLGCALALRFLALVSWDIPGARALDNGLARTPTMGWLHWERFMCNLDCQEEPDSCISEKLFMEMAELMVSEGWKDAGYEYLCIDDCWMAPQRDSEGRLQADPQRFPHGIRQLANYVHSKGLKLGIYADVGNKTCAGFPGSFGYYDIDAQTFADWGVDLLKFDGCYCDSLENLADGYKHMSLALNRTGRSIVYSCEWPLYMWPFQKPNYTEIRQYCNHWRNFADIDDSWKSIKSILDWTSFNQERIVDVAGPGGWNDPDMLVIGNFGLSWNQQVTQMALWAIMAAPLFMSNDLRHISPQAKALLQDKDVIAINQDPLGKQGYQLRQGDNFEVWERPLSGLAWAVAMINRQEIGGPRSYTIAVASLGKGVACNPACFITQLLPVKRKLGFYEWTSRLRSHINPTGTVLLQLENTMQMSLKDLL
Rango dissoc inh – inhibition of RanGTP-driven Rango-importin beta dissociation. Biochemical FRET Rango-importin beta, RanGTP-induced dissociation. Potency, µM (doses to about 46.1 µM), for inactives: at the highest dose activity change, negative = inhibition. 340,000 tested, 0.071% active; active means falling FRET ratio curve, often poorly fitted, with flat reads before Ran was added; inconclusive means other falling curves, or compound fluorescence or quenching; inactive means flat or rising ratio curve;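 note: potency is the fitted concentration of half-maximal effect; % of control where 0% means no effect; nearly all actives have a fitted effect of over 45% in size; -100% = wells without RanGTP and RCC1; the record marks most hits as doubtful in a second field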
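Rango (0.1 uM)–importin beta (0.25 uM) complex; RanGTP-RCC1 trigger; 45 min RT; CFP/YFP FRET read.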
miR-21 FLuc – raises the signal of a miR-21 reporter; HeLa miR-21 FLuc reporter, luciferase, 48 h; Potency, µM (top dose mostly 38.3 µM), without a hit: at the top dose reporter change, positive = more light; 340,000 tested, under 10 active; active = well fitted rising curve with a large enough effect; inconclusive = small, poorly fitted or top-dose-only effect; inactive = no such curve, though single readings can be large or run the other way;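 note: % of control where 0% means no effect; miR-21 action dims this reporter so a rising signal means less miR-21 action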
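HeLa miR-21-FLuc reporter line, endogenous miR-21; 2000 cells/well in DMEM/10% FBS; compound titration up to ~40uM final, 48 h, 37 degree Celsius; luciferase detection reagent, 15 min lysis, CCD luminescence.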
The depositor's hits bear a star; ? = inconclusive; . = not tested or not shown; & = joins results of further samples. A portion of the library (hit frequency here may not be typical).

Rango complex inh	miR-21 FLuc	Rango dissoc inh	GLA inh pH 4.5	canonical_smiles
?	17%	?	-5	Cc1c(Cc2ccccc2)c(NCCCO)n2c(nc3ccccc32)c1C#N
-0.5%	-38%	-5%	-23	CSc1ccccc1C(=O)Nc1nc2ccccc2c(=O)[nH]1
-0.6%	-8%	0%	4	CCCc1c(C(=O)O)cnn1-c1ccc(Cl)cc1
?	-14%	-18%	0	Cn1ccnc1SCC(=O)Nc1sccc1C#N
-0.4%	2%	-5%	6	CCCn1c(SCC(=O)Nc2nccs2)nnc1-c1cccnc1
6.0%	-20%	1%	2	O=C(NC1CCS(=O)(=O)C1)c1ccc(-c2ccc(Br)cc2)o1 (stereo not given)
-1.7%	-21%	-6%	-1	CC(=O)Nc1cccc(Oc2ccc([N+](=O)[O-])cc2Cl)c1
0.4%	-1%	14%	-4	CC1CCN(S(=O)(=O)c2ccc(Oc3ccc([N+](=O)[O-])cc3)cc2)CC1
-0.3%	-18%	1%	-11	CC(C)CN=c1cc(-c2ccccc2)oc2ccc(Cl)cc12
-0.8%	-9%	11%	2	O=C(Cn1cnc2ccccc2c1=O)N1CCOCC1
-5.6%	23%	-10%	2	COc1cccc(Nc2nc(N)nc(CCl)n2)c1
?	-32%	-27%	5	COC(=O)c1c(/N=C/N(C)C)sc2c1CCN(c1ncc(C(F)(F)F)cc1Cl)C2
-1.9%	2%	-5%	-2	Cc1sc2nc(CN3CCCCC3)nc(Nc3ccc4c(c3)OCCO4)c2c1C
0.8%	24%	4%	-4	COc1ccc(CCNC(=O)/C=C/c2ccc(OC)c(S(=O)(=O)N3CCOCC3)c2)cc1
-2.6%	-56%	9%	0	Cc1nc2sc(-c3ccccc3)nn2c(=O)c1Br
0.5%	0%	-5%	.	CC(C)NC(=O)C1CCN(S(=O)(=O)c2ccc(N3CCCC3=O)cc2)CC1
0.1%	2%	-1%	.	CNC(=S)N(Cc1cc2cc(C)ccc2n2nnnc12)CC(C)(C)CN(C)C
3.4%	-2%	?	-6	O=C(/C=C/c1ccco1)Nc1ccccc1N1CCOCC1
2.8%	-7%	-17%	9	S=c1[nH]nc(-c2ccncc2)n1Cc1ccccc1
-2.8%	-3%	20%	-1	O=C(O)C1C2C=CC(C2)C1C(=O)NCc1ccc2c(c1)OCO2 (stereo not given)
3.2%	-29%	15%	-1	O=C(O)C1CC=CCC1C(=O)Nc1ccc2c(c1)OCCO2 (stereo not given)
2.9%	-4%	-13%	3	Cc1cc(N2C(=O)C3C4C=CC(C4)C3C2=O)ccc1NC(=O)c1cccs1 (stereo not given)
5.7%	-47%	-11%	-8	O=C(CCCOc1ccc(Cl)cc1)N1CCCCCC1
3.7%	-9%	-16%	1	NC1=NC(=Nc2ccccc2)c2ccccc21
0.9%	-34%	-5%	.	Cc1cc(C)nc(SC/C=C/c2ccccc2)n1
0.0%	-1%	3%	.	COc1ccc(CCNCC(=O)Nc2ccc(C(=O)N3CCCCC3)cc2)cc1
-0.4%	-23%	11%	0	COc1nc(NCCC2=CCCCC2)nc(OC)n1
-2.2%	-10%	2%	.	O=C(NCCOc1ccccc1)C1CCC(=O)N(C2CCCCCC2)C1 (stereo not given)
-0.3%	5%	-7%	-15	Fc1ccc(Cn2nnnc2C(c2cccs2)N2CCCCCC2)cc1 (stereo not given)
?	5%	?	7	S=C(Nc1ccc2nsnc2c1)N1CCCCCC1
-1.9%	-2%	2%	0	CC(CN1CCCCC1)C(=O)NNC(=O)C12CC3CC(CC(C3)C1)C2 (stereo not given)
-3.4%	.	19%	.	Cc1nn(-c2ccccc2)c(C)c1NC(=O)COC(=O)C1CC(=O)N(CCc2ccccc2)C1 (stereo not given)
-0.7%	13%	2%	5	COc1ccc(N2CCN(C(=O)CCCOc3cc(=O)n(C)c4ccccc34)CC2)cc1
?	12%	?	-12	CCNC(=S)N/N=C/c1cn(Cc2ccc(F)cc2)c2ccccc12
-6.2%	-8%	-19%	-16	O=C(CCCCCn1c(=S)[nH]c2ccccc2c1=O)NCc1ccc2c(c1)OCO2
?	-7%	9%	-4	Cc1ccc(CN2CCN(c3ccccn3)CC2)s1
0.5%	-4%	2%	2	COC(=O)c1ccc2c(=O)[nH]c(CSc3nc(-c4ccc(F)cc4)cs3)nc2c1
-0.2%	-50%	1%	4	Cc1occc1C(=O)N=Nc1c(O)n(C)c2ccccc12
2.3%	0%	-8%	5	COc1cccc(/C=C/C(=O)NCCc2ccc3c(c2)OCCO3)c1
0.7%	1%	-8%	.	CCCc1nn2c(=O)cc(CSCC(=O)Nc3nnc(C(C)C)s3)nc2s1
-1.8%	.	23%	.	C=CCN1C(=O)c2ccc(C(=O)N3CCN(S(=O)(=O)c4cccc([N+](=O)[O-])c4)CC3)cc2C1=O
1.8%	-12%	-1%	.	COc1cccc(C2CC(=O)Nc3cc(OC)c(OC)cc32)c1 (stereo not given)
0.8%	2%	0%	-5	CC(=O)Oc1ccc(N(C(C)=O)S(=O)(=O)c2cccs2)cc1
-1.2%	-2%	-19%	0	CN(CCCNC(=O)Cn1cccc1C(=O)c1ccccc1)C1CCCCC1
4.3%	0%	-9%	.	CCCCSCCCNC(=O)C1CCC(CNS(=O)(=O)c2ccc(NC(C)=O)cc2)CC1 (stereo not given)
3.5%	.	-12%	.	Nc1ccccc1C(=O)C[C@H](N)C(=O)O
-1.8%	-6%	-15%	-2	Cc1cc(S(=O)(=O)NCc2cccs2)ccc1-n1cnnn1
2.2%	.	-4%	.	CC(C)NC(=O)c1onc(CSc2ccc(F)cc2)c1C(=O)NC(C)C
-4.1%	-3%	-2%	.	COc1cc(NC(=S)N2c3ccccc3CC2C)cc(OC)c1 (stereo not given)
3.5%	9%	-16%	.	O=C(CCCN1CCc2[nH]c3ccc(F)cc3c2C1)c1ccc(F)cc1
-6.6%	0%	0%	-2	Clc1ccc2nc(CN3CCCCC3)cn2c1
0.8%	7%	-7%	.	C=CCn1c(Cc2ccccc2)nc2c(cnn2-c2ccccc2)c1=O
-1.1%	-1%	8%	2	COc1ccc(CCNC(=O)CN(C)S(=O)(=O)c2ccc3c(c2)CCC(=O)N3)cc1OC
1.1%	3%	13%	-10	CN(Cc1nc(-c2cccnc2)no1)S(=O)(=O)c1ccc(Br)cc1
?	-19%	?	.	CCC(=O)Nc1sc2c(c1C(N)=O)CCN(Cc1ccccc1)C2
?	.	?	.	CCC(=NNC(=O)c1ccc2c(c1)nc(C)n2CC)c1cc(F)ccc1O
-1.4%	.	-4%	.	COC(=O)[C@]1(C)N[C@H](CN(C)C(=O)c2ccc(C(C)(C)C)cc2)[C@@H]2C(=O)N(C)C(=O)[C@@H]21
2.6%	0%	0%	1	Cc1ccc(NC(=O)Nc2c(C)n(C)n(-c3ccccc3)c2=O)cc1C
2.9%	-24%	-14%	0	O=C(O)C(Cc1c[nH]c2ccccc12)N1Cc2ccccc2C1=O (stereo not given)
-4.8%	-7%	19%	-3	CCOc1ccc2cc(S(=O)(=O)N3CCN(C)CC3)ccc2c1

Next section.
Rango complex inh	miR-21 FLuc	Rango dissoc inh	GLA inh pH 4.5	canonical_smiles
4.3%	3%	-13%	3	Cc1nn(Cc2ccc(C(=O)N3N=C(C(F)F)CC3(O)C(F)F)o2)c(C)c1[N+](=O)[O-] (stereo not given)
-0.4%	-1%	-2%	-3	COc1ccc(CNC(=O)c2c(O)c3ccccc3n(C)c2=O)cc1OC
-2.2%	-1%	-11%	.	O=C(CN1C(=O)C2CCc3[nH]c4ccccc4c3C2C1=O)N1CCCC1 (stereo not given)
1.7%	2%	-12%	.	O=C(Nn1cnnc1)c1cc(Cl)ccc1Cl
3.9%	-69%	-7%	.	COc1ccc(-c2nc3c(Br)c(N)c(Br)cc3o2)cc1
10.0%	.	13%	.	CCc1ccccc1Nc1nc(N)nc(COC(=O)c2c(C)noc2C)n1
1.1%	-2%	8%	-7	COc1ccc(C2CC(c3cccs3)=NN2C(=O)CSc2nc3ccccc3o2)cc1 (stereo not given)
-1.6%	0%	15%	12	CCC1CCCCN1S(=O)(=O)c1ccc(S(=O)(=O)N(Cc2cccs2)C2CC2)cc1 (stereo not given)
-1.9%&1.1%	?	18%&14%	2&-6	Cc1ccccc1OCc1n(CC(=O)OC2CC(C)CCC2C(C)C)c2ccccc2[n+]1C (stereo not given)
.	-4%	.	-3	Cc1cc(=O)n2c3c(sc2n1)C(=O)N(Cc1ccccc1)C3=O
-0.6%	.	-13%	.	C[C@H](CO)N1C[C@H](C)[C@@H](CN(C)S(=O)(=O)c2ccc(F)cc2)Oc2ccc(NC(=O)Cc3ccccc3)cc2C1=O
1.3%	?	-12%	-12	CCOC(=O)N1CCN(C(=O)c2cc(COc3ccc4ncccc4c3)on2)CC1
4.2%	-3%	4%	3	Cc1[nH]c(=S)c(C#N)c(-c2ccccc2)c1C(=O)Nc1ccccc1
-0.4%	.	-22%	.	C=CCSc1nnc(NC(=O)C2CC(=O)N(Cc3ccc(C)cc3)C2)s1 (stereo not given)
-0.1%	.	5%	.	COc1cc(/C=C2\SC(=S)N(CC(=O)O)C2=O)ccc1OS(=O)(=O)c1ccc(C)cc1
-0.1%	-27%	10%	0	COc1ccccc1CC(=O)NCc1ccc2c(c1)OCO2
0.0%	-8%	-7%	-8	COc1ccccc1OCCNC(=O)c1ccc(S(=O)(=O)N(C)C)cc1
-0.2%	-5%	-1%	-2	O=[N+]([O-])c1ccc(Sc2cccc3cccnc23)c2cccnc12
-3.2%	-4%	5%	-7	O=C(COC(=O)Cc1ccsc1)NCc1ccc(Cl)cc1
-3.2%	2%	-3%	0	COC(C)(C)c1cc(C(C)(C)C)nc(N)n1
0.0%	-7%	10%	-5	COc1ccc(C(=O)C(C)[n+]2ccc(-c3nnc4n3CCCCC4)cc2)cc1 (stereo not given)
0.0%	.	-2%	.	COc1ccc(NC(=O)c2ccc3c(c2)S(=O)(=O)N=C2CCCCCN23)cc1S(N)(=O)=O
-0.7%	-3%	13%	0	CCCCN(C)C(=O)c1ccc(S(=O)(=O)N2CCOCC2)cc1
3.1%	0%&-4%	2%	.	CCCCOc1ccc(C(=O)N(Cc2ccccc2)C2CCS(=O)(=O)C2)cc1 (stereo not given)
0.1%	-7%	3%	.	CCN(CC)CCCNC(=O)C1c2ccccc2Oc2ccccc21

Of the compounds above, 12 have a thiophene ring, fused or not:
Rango complex inh	miR-21 FLuc	Rango dissoc inh	GLA inh pH 4.5	canonical_smiles
?	-14%	-18%	0	Cn1ccnc1SCC(=O)Nc1sccc1C#N
?	-32%	-27%	5	COC(=O)c1c(/N=C/N(C)C)sc2c1CCN(c1ncc(C(F)(F)F)cc1Cl)C2
-1.9%	2%	-5%	-2	Cc1sc2nc(CN3CCCCC3)nc(Nc3ccc4c(c3)OCCO4)c2c1C
2.9%	-4%	-13%	3	Cc1cc(N2C(=O)C3C4C=CC(C4)C3C2=O)ccc1NC(=O)c1cccs1 (stereo not given)
-0.3%	5%	-7%	-15	Fc1ccc(Cn2nnnc2C(c2cccs2)N2CCCCCC2)cc1 (stereo not given)
?	-7%	9%	-4	Cc1ccc(CN2CCN(c3ccccn3)CC2)s1
0.8%	2%	0%	-5	CC(=O)Oc1ccc(N(C(C)=O)S(=O)(=O)c2cccs2)cc1
-1.8%	-6%	-15%	-2	Cc1cc(S(=O)(=O)NCc2cccs2)ccc1-n1cnnn1
?	-19%	?	.	CCC(=O)Nc1sc2c(c1C(N)=O)CCN(Cc1ccccc1)C2
1.1%	-2%	8%	-7	COc1ccc(C2CC(c3cccs3)=NN2C(=O)CSc2nc3ccccc3o2)cc1 (stereo not given)
-1.6%	0%	15%	12	CCC1CCCCN1S(=O)(=O)c1ccc(S(=O)(=O)N(Cc2cccs2)C2CC2)cc1 (stereo not given)
-3.2%	-4%	5%	-7	O=C(COC(=O)Cc1ccsc1)NCc1ccc(Cl)cc1
